Assay outcomes (PubChem)
VDR inhibitor – vitamin D3 receptor (human) inhibition. P11473. VDR-SRC2-3 peptide fluorescence polarization, 2 h. Potency, µM, for inactives: max response, negative = inhibition, usual class: inhibitors. 0.93% of 400,000 active; active = well fitted inhibition curve with a large enough effect; inconclusive = small, poorly fitted or top-dose-only effect, or another doubt; inactive = no such curve, though single readings can be large or run the other way; note: series mostly up to about 120 µM
Target sequence (P11473 whole entry, looked up): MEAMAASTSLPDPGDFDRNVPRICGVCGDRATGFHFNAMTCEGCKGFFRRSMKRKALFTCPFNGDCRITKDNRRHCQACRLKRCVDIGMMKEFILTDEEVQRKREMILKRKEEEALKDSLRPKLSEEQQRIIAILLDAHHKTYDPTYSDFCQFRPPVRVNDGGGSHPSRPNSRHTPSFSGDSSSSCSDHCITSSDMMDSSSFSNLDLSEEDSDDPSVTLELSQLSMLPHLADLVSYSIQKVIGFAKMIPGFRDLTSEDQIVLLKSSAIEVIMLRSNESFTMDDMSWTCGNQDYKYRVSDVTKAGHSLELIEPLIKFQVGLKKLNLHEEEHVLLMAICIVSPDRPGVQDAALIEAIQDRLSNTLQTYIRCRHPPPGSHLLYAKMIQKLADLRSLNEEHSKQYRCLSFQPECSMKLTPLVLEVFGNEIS
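Compounds are added to VDR with labelled SRC2-3 coactivator peptide and held 2 h at room temperature. Inhibition of the VDR–peptide interaction is then read as a change in fluorescence polarization.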
The depositor's hits bear a star; ? = inconclusive; & = joins results of further samples. % is set by controls: 0 for no effect and ±100 for the full control effect; potency is the fitted concentration of half-maximal effect. The list is partial; rates above refer to the full screens.

A first look:
VDR inhibitor | structure
-26% | CC(C)(O)[C@H](O)Cc1cc2ccc(=O)oc2cc1O[C@@H]1O[C@H](CO)[C@@H](O)[C@H](O)[C@H]1O
-16% | COc1cc(-c2cc(C(=O)Nc3cc(S(=O)(=O)N4CCOCC4)ccc3C)c3ccccc3n2)cc(OC)c1OC
4% | CN(CCc1ccccn1)C(=O)Nc1cc(Cl)cc(Cl)c1
10% | Cc1ccc(C(C)C)c(OCC(=O)NNC(=O)CC2OC(=O)c3ccccc32)c1 (configuration not stated)
1% | Cc1ccc2c(c1)sc(=NC(=O)c1cccs1)n2C
2% | COc1ccc(C/C(N)=N/n2cnnc2)cc1Cl
5% | CCCCN(C(=O)c1ccc(OC(F)(F)F)cc1)c1c(N)n(CCC)c(=O)[nH]c1=O

This part in full, from the start:
VDR inhibitor | structure
-26% | CC(C)(O)[C@H](O)Cc1cc2ccc(=O)oc2cc1O[C@@H]1O[C@H](CO)[C@@H](O)[C@H](O)[C@H]1O
-16% | COc1cc(-c2cc(C(=O)Nc3cc(S(=O)(=O)N4CCOCC4)ccc3C)c3ccccc3n2)cc(OC)c1OC
4% | CN(CCc1ccccn1)C(=O)Nc1cc(Cl)cc(Cl)c1
10% | Cc1ccc(C(C)C)c(OCC(=O)NNC(=O)CC2OC(=O)c3ccccc32)c1 (configuration not stated)
1% | Cc1ccc2c(c1)sc(=NC(=O)c1cccs1)n2C
2% | COc1ccc(C/C(N)=N/n2cnnc2)cc1Cl
5% | CCCCN(C(=O)c1ccc(OC(F)(F)F)cc1)c1c(N)n(CCC)c(=O)[nH]c1=O
-6% | O=C(CSc1nc2c(c(=O)[nH]1)CCC2)Nc1ccc(F)cc1
16% | CCN1CCN(C(=O)C2CCCN(c3ncnc4c3nc3n4CCCCC3)C2)CC1 (configuration not stated)
5% | O=C(CCNC(=O)c1ccco1)Nc1ccc(N2CCOCC2)cc1
-16% | CC(CCc1ccccc1)NC(=O)CN1CCN(Cc2ccc(Cl)cc2)C1=O (configuration not stated)
? | N#Cc1ccc(-n2nccc2-c2cnc3n(c2=O)CCS3)cc1
17% | CCN(CC)S(=O)(=O)c1ccc(N2CC(C(=O)Nc3cccc(C(=O)NC4CC4)c3)CC2=O)cc1 (configuration not stated)
-19% | C/C(=N/O)c1no[n+]([O-])c1/C(C)=N\O
-6% | COc1ccc(C(=O)N2CCN(S(=O)(=O)c3ccc(Cl)cc3)CC2)cc1OC
-2% | O=C(Nc1ccc(S(=O)(=O)Nc2ncccn2)cc1)c1nn(Cc2ccccc2)c(=O)c2ccccc12
-17% | Cc1ccc(C)c(N/N=C2\CCCNC2=O)c1
16% | COC(=O)c1cc(=O)nc2sc(-c3ccccc3)nn12
3% | CCOc1ccc(C(C(=O)NC2CCCC2)N(Cc2ccccc2)C(=O)c2nsc(Cl)c2Cl)cc1 (configuration not stated)
-6% | O=C(CCc1ccccc1)Nc1nc2n(n1)C(c1ccccc1)CC(=O)N2 (configuration not stated)
-1% | COc1ccc(O)c(/C=N/NC(=O)CCC(=O)Nc2cccc(C)c2)c1
5% | COC(=O)CN1C(=O)C(O)(c2c(C)[nH]c3ccccc23)c2ccccc21 (configuration not stated)
-10% | COc1cccc(-c2cc(C(=O)Nc3ccc([N+](=O)[O-])cn3)c3ccccc3n2)c1
-7% | CN(C)c1ccc(C(=S)N2CCN(S(=O)(=O)c3ccccc3)CC2)cc1
6% | O=C(NCc1ccc(Cl)cc1)c1cnn2ccccc12
10% | COc1ccc(CNC(=O)c2cccnc2)cc1
4% | COc1cc(CO)cc(Br)c1OCC(=O)N1CCCCC1
7% | O=C(Oc1ccc(NC2=NS(=O)(=O)c3ccccc32)cc1)c1cccnc1
8% | Cn1cc(C(=O)NCc2ccccc2)c(=O)c2cc(S(=O)(=O)N3CCOCC3)ccc21
-3% | O=C(NCc1ccon1)C1CCC(=O)N(Cc2cccc(C(F)(F)F)c2)C1 (configuration not stated)

The list goes on:
VDR inhibitor | structure
11% | Cc1ccc(N2C(=O)CSC23C(=O)Nc2ccccc23)cc1F (configuration not stated)
17% | COc1ccc(CCNC(=O)Cn2c(=O)n(CC3CCCO3)c(=O)c3ccccc32)cc1OC (configuration not stated)
11% | CN1C(C(=O)Nc2ccc(F)cc2F)=CC(c2ccc3c(c2)OCO3)=NS1(=O)=O
2% | O=C(Cc1cccc2ccccc12)Nc1nnc(-c2cccc([N+](=O)[O-])c2)s1
12% | CC(C)NC(=O)N(Cc1ccc(Cl)cc1)Cc1cccs1
-12% | Cn1c(CNC2CCCCC2)nc2ccccc21
-3% | CN(C)S(=O)(=O)c1ccc(C(=O)Nc2ccc3ncccc3c2)cc1
-7% | COc1ccc(C(=O)NNC2CC(=O)N(Cc3ccccc3)C2=O)cc1OC (configuration not stated)
23% | CCCSc1cc(Cl)nc(N)n1
12% | COc1ccc(OCc2ccc(-c3nc(C#N)c(NC(C)c4ccccc4)o3)o2)cc1 (configuration not stated)
-7% | O=C(COc1ccc(Br)cc1Cl)N1CCN(c2ccccn2)CC1
13% | CC1(C)CC(CCC(=O)Nc2ccc(S(N)(=O)=O)cc2)C(=O)O1 (configuration not stated)
3% | Cc1ccc(NC(=O)CNC(C)c2ccccc2)cc1 (configuration not stated)
-4% | COC(=O)c1ccc(C2/C(=C(/O)c3ccc4c(c3)CC(C)O4)C(=O)C(=O)N2Cc2cccnc2)cc1 (configuration not stated)
-8% | O=C(COc1ccccc1[N+](=O)[O-])N1CCC(Cc2ccccc2)CC1
-6% | CC(C)C12CN3CC(C(C)C)(CN(C1)C3c1ccc(Cl)cc1)C2=O (configuration not stated)
-21% | NC(=O)c1ccc(-n2nnnc2Oc2ccccc2)cc1
-5% | O=C(COc1ccc(F)cc1)N(Cc1ccc(Cl)cc1)C1CCS(=O)(=O)C1 (configuration not stated)
-13% | COc1ccc(COC(=O)C2CCN(C(=O)c3ccc(Cl)cc3)CC2)cc1F
4% | Cc1ccc(S(=O)(=O)N2CCOCC2)cc1C(=O)NCCc1ccc(Cl)cc1
-12% | COc1nccnc1NS(=O)(=O)c1ccc(NC(=S)NC(=O)c2cccnc2)cc1
-21% | CCOC(=O)c1ccc(N2C(=O)C3CCCN3C2=S)cc1 (configuration not stated)
-1% | O=C(O)c1ccc(S(=O)(=O)N2CCC(c3nc(-c4ccccc4Cl)no3)CC2)cc1
4% | Cc1ccccc1NC(=O)N1CCCC(c2nc(-c3ccc(F)cc3)no2)C1 (configuration not stated)
-21% | COc1ccc(NS(=O)(=O)c2csc(C(=O)Nc3ccccc3)c2)cc1
0% | CCCc1nn(C)c2c1C(c1cccnc1)C(C#N)=C(N)O2 (configuration not stated)
12% | CSc1ccc(CN2CCN(C(=O)c3ccncc3)CC2)cc1
7% | CC(=O)Nc1ccc(NC(=O)COc2ccc(Br)cc2C)cc1
7% | COc1ccc(N(CC(=O)N2CCCCCC2)S(=O)(=O)c2ccccc2)cc1
-8% | CC(C)(C)c1ccc(C(=O)NCCN2CCCC2)cc1

3 records picked at random from the list so far, as already listed:
VDR inhibitor | structure
-21% | CCOC(=O)c1ccc(N2C(=O)C3CCCN3C2=S)cc1 (configuration not stated)
-1% | O=C(O)c1ccc(S(=O)(=O)N2CCC(c3nc(-c4ccccc4Cl)no3)CC2)cc1
-8% | CC(C)(C)c1ccc(C(=O)NCCN2CCCC2)cc1

Continuation.
VDR inhibitor | structure
9% | CCOC(=O)c1noc2ncn(CC(=O)Nc3cc(Cl)ccc3OC)c(=O)c12
8% | O=c1ccc2cc(S(=O)(=O)N3CCOCC3)ccc2o1
-8% | CCOC(=O)C1=C(CN2CCc3ccccc32)NC(=O)NC1c1cccc([N+](=O)[O-])c1 (configuration not stated)
? | CC(C)Cc1ccc(C(C)CC2=CCC(CN(C)C)C2=O)cc1 (configuration not stated)
? | NC(=S)N/N=C/c1ccc(-c2ccc([N+](=O)[O-])cc2)o1
5% | CCC(=O)Nc1cc2c(cc1C(=O)c1ccccc1)OCCO2
5% | COc1ccc(NC(=O)c2oc3ccccc3c2NC(=O)c2cc(=O)c3ccccc3o2)cc1
5% | COc1ccc(C2CCCN2C(=S)Nc2cccc(Cl)c2C)cc1OC (configuration not stated)
-3% | O=C1CN(C(=O)/C=C/c2ccc(Cl)cc2Cl)CCN1
-6% | CC1CCN(C(=O)CSc2nc(C(C)C)nc3c2c(=O)n(C)c(=O)n3C)CC1
-12% | CCN(CC(=O)Nc1ccccc1C(F)(F)F)C(=O)c1cc(-c2cccs2)nn1-c1ccccc1
-2% | O=C(CN(CC1CCCO1)C(=O)CNS(=O)(=O)c1ccc(Cl)cc1)NCc1ccc(F)cc1 (configuration not stated)
13% | CCCSc1ncc(Cl)c(C(=O)Nc2nc3ccc(C)cc3s2)n1
-1% | COc1ccccc1-c1cnnc(N/N=C/c2ccc(-c3cccc(Br)c3)o2)n1
7% | CC(C)(C)c1ccc(-c2nnc(N)s2)cc1
19% | COc1cc2c(cc1NC(=O)c1cc(-c3cccnc3)nc3ccc(C)cc13)oc1ccccc12
-7% | COC(=O)c1cccc(C(=O)Nc2ccc(C)cc2)n1
-9% | COc1ccc(-c2nnc3ccc(SC(C)C)nn23)cc1OC
7% | CCOC(=O)c1cc(C)n(CC2CCC(C(=O)Nc3cccc(Cl)c3)CC2)c1C (configuration not stated)
12% | C/C(=N\NS(=O)(=O)c1ccc(C(C)(C)C)cc1)c1ccccc1
8% | CC1=C(C(=O)OCC2CCCO2)C(c2ccsc2)C2=C(CC(C)(C)CC2=O)N1 (configuration not stated)
-13% | COc1ccc([C@H]2CC(=O)C=C(c3ccc4ncccc4c3)C2)cc1
-21% | COc1ccc(NC(=O)C(=O)Nc2cccc3cccnc23)cc1OC
11% | O=C(CN1C(=O)C2CCCCC2C1=O)Nc1ccc(S(=O)(=O)Nc2ncccn2)cc1 (configuration not stated)
-4% | Cn1c(=O)c(CCc2ccccc2)nc2cnc(OCc3ccccc3)nc21
9% | CC(C)(C)NCc1cc(Cl)ccc1OCc1ccccc1F
-2% | CCOC(=O)C1=C(COC(=O)c2cc(S(=O)(=O)N(C)C)ccc2C)NC(=O)NC1C (configuration not stated)
-4% | CC(C)C[C@H](NC(=O)OC(C)(C)C)c1nnc(SCc2ccccc2)o1
2% | COc1cccc(NC(=O)c2nc3ncccn3n2)c1
-15% | O=C(c1ccc(COc2ccc(Cl)cc2Cl)o1)N1CCCC1

Rewritten field by field: 2 of the compounds above.
mol: NC(=O)c1ccc(-n2nnnc2Oc2ccccc2)cc1
  VDR inhibitor: -21%

mol: O=C(COc1ccc(F)cc1)N(Cc1ccc(Cl)cc1)C1CCS(=O)(=O)C1 (configuration not stated)
  VDR inhibitor: -5%

Next entries.
VDR inhibitor | structure
6% | COc1ccc(S(=O)(=O)Nc2cc3c4c(c2)CCN4C(=O)CC3)cc1
-4% | CC(=O)n1cc(/C=N/NC(=O)c2sc(C)nc2C)c2ccccc21
7% | Cc1sc2ncnc(N3CCCCC3)c2c1C
-7% | Cc1c(NS(=O)(=O)c2ccc(NC3CCCC3)c([N+](=O)[O-])c2)c(=O)n(-c2ccccc2)n1C
-20% | Cc1cc(C)nc(N2CCCC(C(=O)NC(C)C)C2)n1 (configuration not stated)
-20% | Cc1ccc(S(=O)(=O)Nc2ccc3cn[nH]c3c2)cc1C
-28% | COc1ccc(S(=O)(=O)N2CCC(C(=O)N[C@H](C(=O)NC3CCCC3)C(C)C)CC2)cc1
-7% | CC(CCc1ccccc1)NC(=O)C(=O)Nc1ccccc1 (configuration not stated)
6% | FC(F)(F)c1cccc(CN2CCSCC2)c1
-4% | CCCOc1ccc(C(=O)C(c2ccccc2)N2CCOCC2)cc1 (configuration not stated)
-11%&-2% | CCCCCC(=O)/C=C/C=C\C/C=C\C/C=C\CCCC(=O)O
-7% | CCOc1ccc(NC(=O)Cn2cc(C(=O)c3ccc(C)cc3)c(=O)c3cc4c(cc32)OCCO4)cc1
8% | Cc1ccccc1Nc1c(-c2cccnc2)nc2ccccn12
6% | Cc1nnc(SCC(=O)N2CCCC2)n1-c1ccc(F)cc1
-6% | CCc1ccc(-c2nc(SCC(=O)NC3CCCC3)n[nH]2)cc1
-9% | Cc1ccc(NC(=O)CSc2nnc(C(F)(F)F)n2C)cc1[N+](=O)[O-]
-6% | CC1CC(C)CN(C(=O)C2CCN(S(=O)(=O)c3cccc4cccnc34)CC2)C1 (configuration not stated)
-13% | O=C(O)Cc1ccc(NC(=O)C2CCCCC2C(=O)O)cc1 (configuration not stated)
1% | O=C1CCC(C(=O)N2CCOCC2)CN1Cc1cccc(C(F)(F)F)c1 (configuration not stated)
-3% | O=C(NCCc1nc2ccccc2[nH]1)/C(=C/c1ccc2c(c1)OCO2)NC(=O)c1ccccc1Cl
-7% | COc1ccccc1N(CC(=O)Nc1ccccc1C(F)(F)F)S(=O)(=O)c1ccc(C)cc1
-19% | CCNC(COC(=O)c1ccc([N+](=O)[O-])cc1)C1CCCCC1 (configuration not stated)
7% | CC(C)(C)NC(=O)c1oc2ccccc2c1NC(=O)c1ccc(F)cc1
28µM* | O=c1[nH]c(/C=C/c2cccc([N+](=O)[O-])c2)c([N+](=O)[O-])c(=O)[nH]1
-2% | CCn1c(C)c(P(=O)(N2CCOCC2)N2CCOCC2)c2ccccc21
-9% | COc1ccc(/C=N/NC(=O)c2ccc(NC(=O)c3ccccc3Br)cc2)cc1
-1% | Cc1cccc(-c2cc(C(=O)Nc3sc(C)c(C)c3C(N)=O)c3ccccc3n2)c1
0% | O=C(O)c1ccc(N=Nc2c(O)[nH]c3ccccc23)cc1
-4% | Cc1cccc(N/C=C/C(=O)c2cccs2)c1C
-11% | CC(=O)N1CC(C)Oc2ccc(S(=O)(=O)NC(CC(=O)O)c3cc(C)ccc3C)cc21 (configuration not stated)
